# Screening results: PubChem BioAssay, National Center for Advancing Translational Sciences (NCATS)
# Rango release inh – prevents RanGTP from dissociating the Rango-importin beta complex | O95149+P62826 | Biochemical FRET Rango-importin beta, RanGTP-induced dissociation | Potency, µM (top dose mostly 46.1 µM), inactives show at the highest dose activity change, negative = inhibition | actives 0.071% (n = 340,000); active means falling FRET ratio curve, often poorly fitted, with flat reads before Ran was added; inconclusive means other falling curves, or compound fluorescence or quenching; inactive means flat or rising ratio curve;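 further: potency means the concentration at half of the fitted maximal effect; % of control where 0% means no effect; nearly all actives have a fitted effect of over 45% in size; -100% = wells without RanGTP and RCC1; the record marks most hits as doubtful in a second field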
#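 Two FRET readings bracket the reaction: one 5 min after compound meets Rango–importin beta, another 45 min after RanGTP-RCC1 (0.6 uM Ran, 0.2 uM RCC1, 2 mM GTP) is added. Only the second defines inhibition.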
# miR-21 FLuc – raises the signal of a miR-21 reporter | HeLa miR-21 FLuc reporter, luciferase, 48 h | AID 2288 | Potency, µM (titrated, usually from 38.3 µM), inactives show top-dose reporter change, positive = more light | 340,000 tested, under 10 active; active = well fitted rising curve with a large enough effect; inconclusive = small, poorly fitted or top-dose-only effect; inactive = no such curve, though single readings can be large or run the other way;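 further: % of control where 0% means no effect; miR-21 action dims this reporter so a rising signal means less miR-21 action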
#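 Using DMEM plus 10% FBS, HeLa miR-21-FLuc cells are incubated with test compounds (final up to about 40uM) for 48 hours; firefly luciferase signal is then imaged following reagent-mediated lysis.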
# Rango-impB inh – inhibitors of Rango-importin beta complex formation | Q14974 | Rango CFP/YFP FRET sensor + importin beta, 45 min | Potency, µM (series often up to 92.2 µM), for the others: at the highest dose inhibition of complex formation | actives 0.031% (n = 340,000) | AID 540263; active = rising FRET ratio curve, often small or poorly fitted; inconclusive = mostly compound fluorescence or quenching in the first reads; inactive = flat curves in all reads;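 further: potency means the concentration at half of the fitted maximal effect; 0% = DMSO wells and 100% = buffer wells lacking importin beta; nearly all actives have a fitted effect of over 15% in size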
#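 FRET biosensor Rango (snurportin 1 IBB between N-terminal EYFP and C-terminal Cerulean), 50 nM in PBS/1 mM DTT/0.02% Tween-20/0.1% BSA, preincubated 5 min RT with compound; 0.125 microM importin beta added, 45 min RT, CFP/YFP FRET ratio read.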
# GLA inh pH 4.5 – inhibitors of human alpha-galactosidase A at pH 4.5; purified enzyme, 4-MU-alpha-Gal fluorescence, pH 4.5; AID 1467; 230,000 tested, under 10 active; activity change, negative = inhibition, % at 105 µM; P06280; inconclusive = small, poorly fitted or top-dose-only inhibition, or a rising curve; inactive = flat fitted curve, though single readings scatter; no compound was filed as active;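 further: 0% = full activity with enzyme and -100% = basal without enzyme; dose as in the result columns while the protocol names 77 µM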
# Target sequence (P06280 whole entry, looked up): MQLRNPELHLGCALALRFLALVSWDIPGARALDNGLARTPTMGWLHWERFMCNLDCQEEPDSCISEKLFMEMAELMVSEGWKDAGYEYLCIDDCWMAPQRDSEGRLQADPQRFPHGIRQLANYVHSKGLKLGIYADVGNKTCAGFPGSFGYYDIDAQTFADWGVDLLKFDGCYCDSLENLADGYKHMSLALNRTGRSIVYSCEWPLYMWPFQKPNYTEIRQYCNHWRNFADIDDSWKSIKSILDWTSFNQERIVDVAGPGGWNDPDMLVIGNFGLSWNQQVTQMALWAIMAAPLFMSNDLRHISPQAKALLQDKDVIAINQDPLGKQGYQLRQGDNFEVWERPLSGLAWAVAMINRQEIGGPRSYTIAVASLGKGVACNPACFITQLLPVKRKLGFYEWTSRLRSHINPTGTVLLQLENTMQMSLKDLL
# * marks the source's active call; other numbers are inactive results; ? = inconclusive; · = not tested or not shown; & = joins results of further samples; [ ] = dose if it differs, or a comment. A portion of the library. The share of hits here may be higher or lower than overall.
Rango release inh | miR-21 FLuc | mol | Rango-impB inh | GLA inh pH 4.5
-18% | 17% | CS(=O)(=O)N(CCc1ccccc1)CC(=O)N1CCN(c2ccccc2)CC1 | -0.3% | -10
-16% | -7% | CCOC(=O)C1C(=O)CC(C)(O)C(C(=O)OCC)C1c1ccc(C)s1 (stereo not given) | 1.3% | -10
0% | · | Cc1cc2c(=Cc3ccc(N(C)C)cc3)c3ccccc3n2[n+]1C | 1.3% | ·
16% | 5% | COC(=O)C(Cc1ccccc1)NC(=O)CCNC(=O)c1ccco1 (stereo not given) | -0.2% | ·
12% | -70% | COc1cc(OC)c(C(=O)Nc2ccc(N(C)C)cc2)cc1OC | -1.6% | 10
1% | -13% | FC(F)(F)c1cccc(Oc2ccc3c(C(F)(F)F)cc(C(F)(F)F)nc3n2)c1 | 3.7% | -13
-2% | -2% | Cc1c(C(=O)Oc2cc(N)n(S(C)(=O)=O)n2)cccc1[N+](=O)[O-] | 1.5% | 3
12% | -9% | Cc1cc(OCC(=O)NCCN2CCOCC2)ccc1Br | 3.1% | 3
-1% | -3% | O=S(=O)(Nc1nc2ccccc2nc1NCc1ccco1)c1ccccc1 | -5.7% | -5
18% | -10% | Cc1c(NC(=O)Cc2cccs2)cccc1[N+](=O)[O-] | -2.2% | 1
-1% | 9% | O/N=C\c1ccccc1Oc1ccc(F)cc1 | -4.2% | 0
14% | -7% | CC(C)Oc1c(N2CCOCC2)c(=O)c1=O | 0.7% | 6
20% | 12% | Cc1cccc(C)c1OCC(=O)N/N=C/C=C/c1ccco1 | 5.1% | 0
-4% | -4% | CC1CN(CC(=O)NC(C)c2ccccc2)CC(C)O1 (stereo not given) | 0.4% | ·
1% | -6% | CCOC(=O)c1c(NC(=O)c2ccc(Br)o2)sc(C)c1CC | -0.6% | 12
1% | -5% | O=C(NCCCN1CCOCC1)c1c(F)cccc1F | -1.2% | 2

# Random excerpt: 2 compounds from above.
Rango release inh | miR-21 FLuc | mol | Rango-impB inh | GLA inh pH 4.5
-1% | 9% | O/N=C\c1ccccc1Oc1ccc(F)cc1 | -4.2% | 0
18% | -10% | Cc1c(NC(=O)Cc2cccs2)cccc1[N+](=O)[O-] | -2.2% | 1

# The results go on.
Rango release inh | miR-21 FLuc | mol | Rango-impB inh | GLA inh pH 4.5
-14% | · | CC1CCC(NC(=O)CSc2nncs2)CC1 (stereo not given) | -0.4% | ·
? | -3% | Cc1ccc(NC(=O)CSc2nc3nc(C)c(Br)cc3[nH]2)cc1F | ? | ·
-8% | -1% | C[C@@](Cc1ccc(O)c(O)c1)(NN)C(=O)O | 1.8% | 2&-6&-1&-1
-13% | -33% | COC(=O)c1sccc1NC(=O)Cc1ccc(Br)cc1 | -0.5% | -10
? | 20% | CN1/C(=C\C=C2/SC(=S)NC2=O)C(C)(C)c2ccccc21 | 23µM* | -15
1% | 3% | COc1ccc(NC2CCN(C3CC(=O)N(c4ccc(F)c(Cl)c4)C3=O)CC2)cc1 (stereo not given) | -2.9% | -3
-5% | 1% | O=C1CC(=O)CC(c2ccccc2)C1 | 3.1% | -1[21.1 µM]
1% | -1% | COc1cc(C2C(=O)N(C3CCCC3)CC(=O)N2Cc2ccco2)ccc1OC(C)C (stereo not given) | 3.7% | 11
-10% | 6% | CCC1(c2ccccc2)NC(=O)N(CC(=O)N(C)Cc2ccccc2)C1=O (stereo not given) | -0.5% | ·
4% | 13% | Cn1c(=O)n(C)c2cc(NS(=O)(=O)c3ccc(C(C)(C)C)cc3)ccc21 | -1.6% | -24
· | -5% | Cc1ccc(-n2cc(CN3CCC(CO)(Cc4ccccc4)CC3)cn2)cc1 | · | -2
-25% | 0% | Cc1ccc2c(c1)C1C3CCC(C3)C1S(=O)N2 (stereo not given) | 3.5% | 6
? | · | N#Cc1c(-c2ccccc2)cc(-c2ccc3c(c2)OCO3)[nH]c1=O | ? | ·
2% | · | COC(=O)c1ccc(CNC(=O)c2ccc(OCC(=O)N3CCOCC3)c(OC)c2)cc1 | 1.6% | ·
-12% | · | CC(=O)c1cccc(OC(=O)c2ccccc2)c1 | 0.1% | ·
21% | · | CCC1(CC)C(=O)C2=C3C1[C@H](C(=O)OC)C=C(C(=O)OC)C[C@H]3n1c(=O)n(C)c(=O)n1[C@H]2C (stereo not given in full) | -1.2% | ·
-2% | · | CCCCN(C(=O)c1ccc(N(C)S(=O)(=O)c2ccc(C)cc2)cc1)c1c(N)n(CC(C)C)c(=O)[nH]c1=O | -2.3% | ·
-10% | -3% | O=C(CSc1nc(C2CCCCC2)nc2ccccc12)NCc1ccco1 | -0.1% | 6
-14% | · | CCOC(=O)C1Oc2ccccc2C(c2ccc(C)cc2)=C1C(=O)OC (stereo not given) | 0.6% | -6
13% | 1% | CCCCOc1ccc(N2C(=O)CC(NCc3ccncc3)C2=O)cc1 (stereo not given) | -1.1% | 0
1% | -49% | COCC(C)NC(=O)c1cc(-c2cccc(OC)c2)on1 (stereo not given) | -2.2% | 6
-6% | 9% | O=C(CCCc1nc2ccccc2s1)N1CCN(S(=O)(=O)c2cccs2)CC1 | -4.3% | -11
-4% | -3% | CCN(CC)S(=O)(=O)c1ccc(-c2nnc(SCC(=O)Nc3cc(OC)cc(OC)c3)o2)cc1 | -0.6% | 5
12% | -7% | CCOC(=O)c1ccc(NC(=O)CSc2n[nH]c(-c3ccncc3)n2)cc1 | 2.3% | 7

# Next part; it opens with the 3 that closed the last part.
Rango release inh | miR-21 FLuc | mol | Rango-impB inh | GLA inh pH 4.5
-6% | 9% | O=C(CCCc1nc2ccccc2s1)N1CCN(S(=O)(=O)c2cccs2)CC1 | -4.3% | -11
-4% | -3% | CCN(CC)S(=O)(=O)c1ccc(-c2nnc(SCC(=O)Nc3cc(OC)cc(OC)c3)o2)cc1 | -0.6% | 5
12% | -7% | CCOC(=O)c1ccc(NC(=O)CSc2n[nH]c(-c3ccncc3)n2)cc1 | 2.3% | 7
-2% | -7% | COc1ccc(C2=NCCn3cccc32)c(OC)c1 | 0.3% | 3
? | ? | CCOC(=O)c1c(-c2ccc(OC)cc2)csc1/N=C/C1=C(O)CCCC1=O | ? | -7
25% | 2% | O=C(CCNS(=O)(=O)c1cccc2nonc12)Nc1ccc(Cl)cc1 | 0.3% | ·
0% | -4% | COc1ccc(NC(=O)C2C(=O)NC3(C)CC2c2ccccc2O3)cc1 (stereo not given) | 0.4% | -8
1% | 2% | O=C(c1ccc(Cl)c(Cl)c1)N1CCC(=O)N(C(COCc2cccc(C(F)(F)F)c2)Cc2ccccc2)CC1 (stereo not given) | -3.5% | -5
18% | -50% | CSc1ccccc1C(=O)C1CCCN(C(=O)CCc2cccnc2)C1 (stereo not given) | -2.1% | 5
13% | 1% | COC(=O)c1ccccc1NC(=O)CSc1nncn1C | 0.3% | 4
1% | -11% | CC(C)C(=O)NC(=S)Nc1ccccc1C(=O)Nc1ccccc1 | 2.0% | 3
-15% | 1% | O=C(NCc1ccc(F)cc1)C1CC(=O)N(C2CCCCC2)C1 (stereo not given) | -0.7% | ·
14% | 16% | Cc1ccc(NS(=O)(=O)c2ccc(C3CCCCC3)cc2)cc1 | 2.0% | -2
10% | -2% | O=C1NC2(CCCCCCC2)C(=O)N1Cc1ccc(F)cc1 | -0.1% | 2
-11% | -7% | CCCS(=O)(=O)n1nc(-c2ccc(OC)cc2OC)cc1N | 3.0% | 0
-7% | -2%&-2% | COc1ccc(CCNC(=O)CCCCCn2c(SCC(N)=O)nc3cc4c(cc3c2=O)OCO4)cc1OC | 0.5% | 2
3% | 0% | CCN(CC)S(=O)(=O)c1cc(C(=O)Oc2ccccc2OC)ccc1OC | -0.1% | 3
0% | · | O=C(COC(=O)c1ccc(O)cc1O)Nc1cc(-c2ccccc2)nn1-c1ccccc1 | 1.0% | ·
-5% | -52% | NC(=O)c1ccccc1NC(=O)COc1ccc2c(c1)OCO2 | 4.7% | ·
-13% | -39% | CCc1nnc(NC(=O)c2ccc(Cl)nc2)s1 | 7.6% | 5
-17% | 3% | CCOc1cc2[nH]c(=S)n(CCC(=O)NCc3ccco3)c(=O)c2cc1OCC | -0.7% | -1
-7% | -29% | Cc1c(C(=O)OCC(=O)N2C(C)CCCC2C)oc2ccccc12 (stereo not given) | 5.0% | ·
-12% | -84% | O=[N+]([O-])c1ncccc1OCc1ccc(Cl)c(Cl)c1 | 0.4% | ·
-6% | 0% | CC(=O)c1ccc([N+](=O)[O-])c(CS(=O)(=O)c2ccccc2)c1 | -0.9% | ·
15% | -1% | CCN(CC)S(=O)(=O)c1cccc(NC(=O)COC(=O)CCC(=O)c2cccs2)c1 | -1.1% | 6
-26% | -65% | Cc1cc(N/C=C/C(=O)c2ccccc2)ccc1Br | ? | ·
0% | · | O=C1C(Cc2ccccc2)Nc2ncnc(N3CCc4ccccc4C3)c2N1Cc1ccc(Cl)cc1 (stereo not given) | ? | ·
19% | -1% | O=[N+]([O-])c1cccc(-c2ccc(CN3CCN(c4ccccc4)CC3)o2)c1 | 3.7% | ·
-2% | -1%&2% | COCCNC(=O)CCCn1c(=O)c2cc(OC)c(OC)cc2n(CC(=O)Nc2ccc(F)cc2)c1=O | 5.2% | 4
18% | 1% | Cc1ccc(CC(NC(=O)c2ccccc2)C(=O)NC(CC(C)C)C(=O)O)cc1 (stereo not given) | ? | 3[21.1 µM]
5% | -7% | Cc1ccc2nc(Nc3ccc(Cl)cc3)c3nncn3c2c1 | -4.2% | ·
-4% | -4% | O=c1cc(-c2ccccc2)c2cc(Cl)ccc2[nH]1 | -3.7% | ·
2% | -52% | CC1CCCN(C(C(=O)NC2CCCCC2)c2cc3c(cc2[N+](=O)[O-])OCO3)C1 (stereo not given) | 0.3% | 4
0% | -12% | CC1CCN(c2nncc3ccccc23)CC1 | 1.0% | -4
0% | -31% | O=[N+]([O-])c1ccc(SCCc2ccccn2)cc1 | 1.4% | -1
-2% | -28% | CC(NC(=O)c1ccc(C23CC4CC(CC(C4)C2)C3)cc1)C(=O)O (stereo not given) | 1.3% | -1
5% | · | C=CC[C@H](CC(=O)NCCO)C(=O)N[C@H](COC(=O)[C@@H](CC=C)CC(=O)OC(C)(C)C)Cc1ccccc1 | -1.4% | ·
-5% | -2% | Cc1ccnn1Cc1cc(C(=O)O)c2ccccc2n1 | 0.1% | 6
-8% | 0% | N#Cc1ccc(NC(=O)Cn2cnc(S(=O)(=O)N3CCOCC3)c2)cc1 | -5.0% | ·
6% | 11% | CC(=O)Nc1ccc(S(=O)(=O)N(Cc2ccccc2)c2ccccn2)cc1 | 0.7% | ·
-7% | -14% | Cc1cc(C)cc(C(N)=Nc2cccc(C#N)c2)c1 | -0.3% | ·
-15% | -35% | Cc1ccc(CNC(=O)C2CC(c3cccc([N+](=O)[O-])c3)=NO2)o1 (stereo not given) | -0.7% | -3
-10% | 0% | Cc1ccc(NC(=O)C2CCCN2C(=O)Oc2ccccc2)c(C)c1 (stereo not given) | -0.6% | 5
-6% | 2% | CCN1CC(c2ccccc2)C(c2ccc(Cl)cc2)=N1 (stereo not given) | 4.1% | 3
-4% | 2% | COc1cc(NC(=O)COc2ccccc2)ccc1NC(=O)c1ccco1 | -2.0% | ·
6% | -7% | CCOC(=O)NC(Nc1nnc(SCC)s1)(C(F)(F)F)C(F)(F)F | 0.3% | -6
-2% | · | COc1ccc(C)cc1NC(=O)C(OC(=O)C1=NNC(=O)CC1)c1ccccc1 (stereo not given) | -0.7% | ·
6% | 0% | COc1ccc(/C=C2\SC(=O)N(CC(=O)N(C)C3CCS(=O)(=O)C3)C2=O)cc1 (stereo not given) | 1.6% | ·
8% | · | CC(OC(=O)c1cccc(-n2cnnn2)c1)C(=O)Nc1ccccc1F (stereo not given) | -2.7% | ·
3% | -25% | CCc1ccc(NC(=O)CCn2cccc2)cc1 | -4.5% | 0
3% | 15% | O=S(=O)(CCN1CCOCC1)c1ccc(Oc2ccc(S(=O)(=O)CCN3CCOCC3)cc2)cc1 | -6.4% | ·
0% | 4% | CSc1cccc(CN2CCC(Oc3cccc(C(=O)N4CCCC4)c3)CC2)c1 | -0.5% | ·
